# Ecoli rRNA inh = reduced GFP signal of wild-type E. coli, primary screen, bacterial rRNA inhibitor project, GFP/RFP fluorescence, OD600, single point; E. coli WT GFP vs humanized-ribosome RFP mutants, 24 h; active compounds read low; DMSO median 0, no signal -100; GFP signal change (wild-type ribosome), % (test concentration not listed); 1.6% of 350,000 active;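 active = significant combined selectivity score with lowered wild-type GFP, culture density cut under 30%, mutant RFP and density less affected; inactive = any of these conditions unmet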; also: one replicate is shown; some compounds called inactive have numbers as strong as hits
# MLL AF4-AF9 inh = inhibitors of AF4 peptide binding to AF9, primary screen, biochemical, AlphaScreen, biotin-AF4 peptide, FLAG-AF9, single point; Protein AF-9 (Homo sapiens), P42568; inhibition, % at 10 µM; 0.47% of 350,000 active;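 active = every replicate reaching a set inhibition limit, whatever the replicate mean, cut at about 25% in these data; inconclusive = mean inhibition reaches that limit but some replicates miss it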;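 also: 0% = plate neutral control median and 100% = total signal loss; the record names both 10 and 1 µM as test concentration; the first replicate is given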
# Target sequence (P42568 whole entry, looked up): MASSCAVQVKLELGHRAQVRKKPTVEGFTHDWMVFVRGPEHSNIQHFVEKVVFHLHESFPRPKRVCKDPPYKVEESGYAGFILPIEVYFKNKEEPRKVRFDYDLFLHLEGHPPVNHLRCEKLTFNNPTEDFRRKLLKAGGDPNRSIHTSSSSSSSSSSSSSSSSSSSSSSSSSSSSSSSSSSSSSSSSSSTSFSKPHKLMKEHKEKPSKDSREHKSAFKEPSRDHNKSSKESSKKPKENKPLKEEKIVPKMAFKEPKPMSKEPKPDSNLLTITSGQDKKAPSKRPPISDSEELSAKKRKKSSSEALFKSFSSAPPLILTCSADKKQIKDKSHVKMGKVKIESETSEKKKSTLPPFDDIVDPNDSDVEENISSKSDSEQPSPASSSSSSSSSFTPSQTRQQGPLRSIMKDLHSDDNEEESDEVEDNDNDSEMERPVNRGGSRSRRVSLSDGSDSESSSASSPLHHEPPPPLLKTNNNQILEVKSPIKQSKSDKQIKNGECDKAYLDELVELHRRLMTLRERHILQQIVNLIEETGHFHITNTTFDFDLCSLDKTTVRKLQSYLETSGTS
# E coli growth = E. coli growth inhibition, primary screen, OD600; Escherichia coli growth, 23 h; active compounds read low; OD600 absorbance (no concentration beside the values); 0.21% of 330,000 active;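 active = OD600 absorbance below the run mean of sample wells minus 3.6 SD, in any replicate, cut at about 0.56 in these data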;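 also: stock transfer was 300 nL into about 60 µL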
# HNF4A DNA FP = change in binding of human HNF4A to DNA, primary screen, biochemical, fluorescence polarization, FITC-DNA | Hepatocyte nuclear factor 4-alpha (Homo sapiens), P41235 | 0.3% of 360,000 active | activity change, % at 10 µM | 1 h; in the data active = activity change above about 30%, passing the limit was not always enough;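 also: controls were the assay level and a saturating level of protein; the project sought stronger binding though the title names inhibitors; some compounds called inactive have numbers as strong as hits; positive values seem to mean higher polarization but the record does not say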
# Target sequence (P41235 whole entry, looked up): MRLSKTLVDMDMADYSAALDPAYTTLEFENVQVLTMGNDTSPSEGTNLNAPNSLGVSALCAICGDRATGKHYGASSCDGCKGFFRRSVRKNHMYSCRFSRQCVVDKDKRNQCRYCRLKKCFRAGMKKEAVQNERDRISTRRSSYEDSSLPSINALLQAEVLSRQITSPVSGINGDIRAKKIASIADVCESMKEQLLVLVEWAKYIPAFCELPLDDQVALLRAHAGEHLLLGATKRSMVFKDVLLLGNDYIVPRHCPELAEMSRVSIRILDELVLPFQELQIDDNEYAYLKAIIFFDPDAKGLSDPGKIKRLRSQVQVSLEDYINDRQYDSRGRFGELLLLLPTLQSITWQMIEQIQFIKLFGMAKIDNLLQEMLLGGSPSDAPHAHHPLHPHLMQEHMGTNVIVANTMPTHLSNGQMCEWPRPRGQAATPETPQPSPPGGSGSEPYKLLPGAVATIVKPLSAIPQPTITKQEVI
# ALR inh = inhibitors of human ALR sulfhydryl oxidase, primary screen, biochemical, H2O2 detection, HRP-luminol luminescence, single point; FAD-linked sulfhydryl oxidase ALR (Homo sapiens), P55789; purified ALR, DTT oxidation; inhibition, % (concentration not given with the values); 3.8% of 290,000 active;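 active = mean and each replicate at 75% or more; inconclusive = only one of the two met; inactive = neither met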;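 also: stock transfer was 7.5 nL into about 7.5 µL; 0% = neutral wells and 100% = wells with inactivated enzyme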
# FGF22 binding = binders of human FGF22 protein, primary screen, FGF22 synaptogenesis inhibitor project, biophysical, thermal shift, single point. Fibroblast growth factor 22 (Homo sapiens), Q9HCT0. recombinant FGF22 thermal shift, SYPRO orange fluorescence; percent of sucrose octasulfate shift, DMSO zero. calls only at 9.99 µM. 1.5% of 340,000 active. AID 651658, 2012;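 active = melting point raised past a set limit in the mean and every replicate; inconclusive = no clear call; three in four hits are not shown here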
# Vif A3G = inhibitors of Vif binding to APOBEC3G peptide, primary screen, biochemical, TR-FRET, GST-Vif 1-94, biotin-A3G peptide, dose response retest (AID 1117319); TR-FRET GST-Vif / biotin-A3G peptide binding; higher % means a stronger effect; test concentration not given here; strong numbers were not always called active; one-dose inhibition, %; IC50 in µM for titrated hits; 0.57% of 260,000 active; Virion infectivity factor (Human immunodeficiency virus type 1 group M subtype B (isolate …;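 active = above the screen mean plus three standard deviations and confirmed in dose response; inconclusive = results disagree or hit not tested in dose response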;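 also: Vif residues 1-94 fused to GST binding biotinylated APOBEC3G peptide 110-148; 0% = full assay without inhibitor and 100% = GST in place of GST-Vif; retest series ran down from 100 µM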
# Ecoli rRNA inh OD600 = recorded beside Ecoli rRNA inh, whose call it bears; OD600 change, %; measured here: OD600 growth;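 optical density of the mix in the first replicate; 0 = DMSO median and -100 = no signal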
# Ecoli rRNA inh RFP = also measured in Ecoli rRNA inh; calls as there; RFP signal change, %; measured here: RFP humanized mutant strains;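 first replicate; 0 = DMSO median and -100 = no signal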
# Numbers without * were called inactive; i = inactive; u = inconclusive; x = no result given; & = joins results of further samples.
mol	Ecoli rRNA inh	Ecoli rRNA inh OD600	Ecoli rRNA inh RFP	MLL AF4-AF9 inh	E coli growth	HNF4A DNA FP	ALR inh	FGF22 binding	Vif A3G
CCCOC(=O)c1ccc(-n2nnnc2SCC(=O)N2CCCCC2)cc1	x	x	x	x	0.66	0.8	-4	x	4%
CCSc1nnc(NC(=O)c2csc(C)c2)s1	x	x	x	x	0.72	1.6	-22	x	10%
COc1ccc(C(=O)Nc2ccc3c(c2)C(=O)N(C)C[C@@H](OC)[C@@H](C)CN(C)[C@@H](C)CO3)cc1	2	5	-3.6	-0.9	x	x	x	i	x
CSc1nc(C)cc(SCC(=O)Nc2ccccc2)n1	x	x	x	x	0.66	2.1	-9	x	70%
CC(C(=O)Nc1ccccc1)N1CCN(c2ccccn2)CC1 (configuration not stated)	15	9	-0.7	-0.9	0.71	1.2	-2	i	5%
CCOC(=O)c1ccc(S(=O)(=O)N2CCN(CCC#N)CC2)cc1	4	10	-1.0	1.1	0.75	-0.2	x	i	3%
O=C(CSc1nccn1-c1ccc(Cl)cc1)NCc1ccc2c(c1)OCO2	-18	-31	-10	0.7	0.77	-4.9	-5	i	12%
C[C@H](CO)N1C[C@H](C)[C@@H](CN(C)C)Oc2cc(-c3ccc(C(=O)N(C)C)cc3)ccc2S1(=O)=O	0	9	-1.4	-0.7	x	x	x	i	x
NNC(=O)c1cc2c(N3CCC(Cc4ccccc4)CC3)ncnc2s1	4	1	-0.3	2.6	0.63	2.1	x	x	-3%
CCOc1ccccc1NC(=O)CSc1nc(=O)n(CCCN2CCOCC2)c2c1CCC2	-1	6	-2.4	-9.0	0.66	-2.2	-17	i	4%
COc1ccc(S(=O)(=O)N(C)C[C@@H]2OCCCC[C@@H](C)Oc3ccc(NC(=O)Nc4ccc(F)cc4)cc3C(=O)N([C@@H](C)CO)C[C@H]2C)cc1	3	-1	-5.1	-1.3	x	x	x	i	x
O=P(OC1CCCCC1)(OC1CCCCC1)C(O)c1cccnc1 (configuration not stated)	1	-4	-0.6	-8.5	0.6	2.0	-6	i	-1%
CN(C)c1ccc(C(c2nnnn2CCOC(=O)Nc2ccc(Cl)cc2)N2CCOCC2)cc1 (configuration not stated)	x	x	x	x	0.79	-0.9	x	x	9%
O=C(CCC(=O)N1CCOCC1)NCCc1ccc(F)cc1	7	12	3.7	-2.5	0.68	-2.5	0	i	-18%
CC1(C)Cc2c(sc(NC(=O)c3ccccc3Cl)c2C(=O)O)CO1	-10	-24	-4.4	-0.6	0.69	-1.5	7	i	-3%

# As entered above.
# Result of CCOC(=O)c1ccc(S(=O)(=O)N2CCN(CCC#N)CC2)cc1 under Ecoli rRNA inh RFP: -1.0
# Result of COc1ccc(S(=O)(=O)N(C)C[C@@H]2OCCCC[C@@H](C)Oc3ccc(NC(=O)Nc4ccc(F)cc4)cc3C(=O)N([C@@H](C)CO)C[C@H]2C)cc1 under Ecoli rRNA inh: 3
# Result of NNC(=O)c1cc2c(N3CCC(Cc4ccccc4)CC3)ncnc2s1 under HNF4A DNA FP: 2.1

# Remaining list, next part:
mol	Ecoli rRNA inh	Ecoli rRNA inh OD600	Ecoli rRNA inh RFP	MLL AF4-AF9 inh	E coli growth	HNF4A DNA FP	ALR inh	FGF22 binding	Vif A3G
O=c1cccc2c1c1cc[nH]c3ccc(=O)n2c31	x	x	x	2.5	0.66	-6.8	-9	i	x
CN(C)C(=O)N1CCN(S(=O)(=O)c2ccc3ccccc3c2)CC1	-17	-41	0.7	0.8	0.69	-2.0	-5	i	x
CCOCCCNC(=O)c1ccc(OC2CCN(C(C)=O)CC2)c(OC)c1	-1	5	-3.0	-0.3	0.63	1.9	-4	i	-4%
O=C(COC(=O)C1COc2ccccc2O1)Nc1cccc(S(=O)(=O)N2CCCCC2)c1 (configuration not stated)	0	5	0.1	-3.3	0.71	1.9	x	i	x
CC(=O)Nc1ccc(NC(=O)c2ccccc2Nc2ccccc2)cc1	-9	-17	-0.3	-1.5	0.69	0.5	60	i	13%
OCC(O)C(O)C(O)c1cnn(-c2ccccc2)n1 (configuration not stated)	14	12	1.9	-5.8	0.71	2.5	x	i	-7%
O=C1NC(c2cccc(OCc3ccccc3)c2)Nc2ccccc21 (configuration not stated)	-27	-50	3.3	-0.4	x	-3.2	x	i	-3%
Cc1ccc(CNS(=O)(=O)N(C)C)cc1	x	x	x	x	0.72	1.2	0	x	1%
Cc1noc(C)c1S(=O)(=O)Nc1ccc2c(c1)C(=O)N([C@H](C)CO)C[C@H](C)[C@@H](CN(C)C(=O)Nc1ccc(F)cc1)OCCCC[C@H](C)O2	1	-3	0.4	1.5	x	x	x	i	x
CCOP(=O)(OCC)C(NC(=O)Nc1ccc(Cl)c(Cl)c1)C(N)=O (configuration not stated)	-1	10	0.9	-5.1	0.67	3.8	-9	i	x
CCCn1c(SCC(=O)N2CCCC2)nc2c1c(=O)n(C)c(=O)n2C	x	x	x	x	0.65	-0.8	0	x	6%
Cc1c(Cl)cccc1-n1c(-c2cccnc2)n[nH]c1=S	6	2	-1.0	-2.4	0.71	-0.7	80*	i	1%
Cc1c(C(=O)N2CCCCCC2)c(S(=O)(=O)Nc2cccc(F)c2)c(C)n1C	4	-6	-3.0	-1.3	0.66	-1.9	-17	i	26%
COc1ccc2[nH]c3c(N4CCN(Cc5ccc6c(c5)OCO6)CC4)ncnc3c2c1	x	x	x	x	0.64	-2.5	97*	x	u
O=C(Cn1nnc(-c2ccncc2)n1)NCCc1ccccc1	4	-4	0.3	-5.6	0.67	2.8	-7	i	0%
COC(=O)c1cn(NC(=O)c2ccc(OC)c([N+](=O)[O-])c2)c(=O)c2ccccc12	15	13	-5.0	-1.7	0.67	0.1	4	i	x
CN1[C@@H]2Cn3c(ccc(-c4ccc(F)cc4)c3=O)[C@H]1[C@@H](C(=O)NC1CCCCC1)[C@@H]2CO	4	7	0.2	-1.3	x	x	x	i	x
CCOC(=O)N1CCN(c2cc(=O)n(-c3ccc(OC)cc3)c(=O)[nH]2)CC1	x	x	x	x	0.71	9.7	27	x	3%
CCCc1cc(C(=O)Nc2cc(OC)ccc2OC)cs1	-32*	-25*	-5.0*	-0.5	0.7	-1.1	-2	i	2%
COC(=O)c1ccc(Oc2ccc(C(F)(F)F)cn2)cc1	14	7	2.7	-6.5	0.7	-3.2	7	i	x
COCCc1ncc(CN2CCCCC2C(=O)Nc2ccc(Oc3ccccc3)nc2)cn1 (configuration not stated)	8	14	-1.2	-1.3	0.72	-3.0	-2	i	x
COc1ccc(Cl)cc1Nc1nc(N)nc(C(F)(F)F)n1	x	x	x	x	0.71	3.9	-3	x	-3%
O=C(NCC[C@@H]1CC[C@@H](NC(=O)C2CCCCC2)[C@H](CO)O1)c1ccc(F)cc1	1	1	-2.9	-1.3	x	x	x	i	x
Cc1noc(C)c1S(=O)(=O)N(C)C[C@@H]1OCCCC[C@@H](C)Oc2ccc(NC(=O)Nc3ccccc3)cc2C(=O)N([C@H](C)CO)C[C@@H]1C	0	0	-1.8	1.5	x	x	x	i	x
O=C(CCNC(=O)C1CCN(S(=O)(=O)c2ccc(F)cc2)CC1)NCc1ccncc1	10	8	-2.0	-14	0.71	-4.0	-11	i	x
Cc1ccc(C(=O)NCc2nnc(SCC(=O)Nc3ccccc3)n2C)cc1	x	x	x	x	0.65	-0.9	26	x	x
CCCC(=O)Nc1ccc2c(c1)C(=O)N(C)C[C@H](OC)[C@H](C)CN(C(=O)c1ccccc1F)[C@H](C)CO2	3	7	-0.8	-1.0	x	x	x	i	x
CCCNC(=O)C[C@@H]1CC[C@H]2[C@@H](COC[C@@H](O)CN2C(=O)Nc2ccc3c(c2)OCO3)O1	3	8	-3.2	-1.5	x	x	x	i	x
Cc1ccc(CNc2nc3c([nH]2)c(=O)n(C)c(=O)n3C)cc1	x	x	x	x	0.68	2.8	2	x	4%
Cc1ccc(NS(=O)(=O)c2ccc(-c3ccc(=O)[nH]n3)o2)cc1	-7	-11	-0.3	2.3	0.7	-2.9	-2	i	x
O=C(NCCCc1nc2ccccc2[nH]1)c1ccco1	-3	-4	-3.5	-0.7	0.72	-1.4	-7	i	x
COc1ccc(-c2cccc([C@H]3[C@@H]4C=CC[C@@H](C)[C@@H]4C(=O)N3Cc3ccccc3)c2)cc1	14	9	0.6	-1.0	0.76	-0.2	x	i	3%
CCCCCCSC1=C(C#N)C(c2ccc(C)o2)CC(=O)N1 (configuration not stated)	x	x	x	x	0.72	0.9	-1	x	u
CC(C)CN(Cc1cc(=O)oc2cc3c(cc12)CCCC3)CC(C)C	5	-4	3.0	-0.7	0.65	-3.4	-11	i	16%
CCc1nn(CC(=O)NCCCN(CC)CC)c(=O)c2cc3sc(C)cc3n12	9	6	-0.8	2.5	0.67	1.6	x	i	2%
COc1ccc2oc(C(=O)N(Cc3ccco3)Cc3cccs3)c(C)c2c1	1	-1	0.1	-12	0.69	1.4	52	i	0%
O=C(CSc1nnc(-c2ccccc2)o1)c1nnc(-c2ccccc2)o1	x	x	x	x	0.75	13	25	x	10%
CCOc1ccc(S(=O)(=O)NCc2ccccn2)c(C)c1C	-6	1	-4.5	-4.8	0.69	-4.0	6	i	u
CNC(=S)N(C)/N=C1/C(=O)N(Cc2c(Cl)cccc2Cl)c2ccccc21	-6	-2	0.4	12	x	-0.9	x	i	-5%
COc1ccc(Br)cc1C(=O)Nc1ccccc1N1CCN(C(=O)c2ccccc2)CC1	9	-2	-0.5	2.2	0.69	-3.5	x	i	-6%
O=C(Nc1cccc([N+](=O)[O-])c1)N1CCN(c2ccccc2)CC1	-10	-9	-2.6	5.0	0.66	0.1	x	i	-1%
Cc1cccc2c1CC(C)(C)N=C2C1=C(O)CCCC1=O	x	x	x	x	0.78	2.8	2	x	10%
C[C@@H]1CN([C@@H](C)CO)C(=O)c2cc(NC(=O)c3ccncc3)ccc2O[C@@H](C)CCCCO[C@@H]1CN(C)Cc1ccccc1	-1	1	-0.9	0.0	x	x	x	i	x
Cn1c(CNC(=O)C2CCCCC2)cc2cc(Cl)ccc21	10	14	5.1	-8.9	0.64	3.3	-11	i	41%
O=C(Nc1c2c(nn1-c1ccccc1)CS(=O)C2)c1ccc(S(=O)(=O)N2CCOCC2)cc1 (configuration not stated)	-3	-2	-3.0	-1.7	0.69	0.9	27	i	x
Clc1ccc(C2CC(c3cccs3)n3ncnc3N2)c(Cl)c1 (configuration not stated)	-49	-75	-14	2.3	0.72	2.7	-5	i	2%&-4%
Cc1cccc(-n2nc(C(=O)c3ccco3)cc(-c3nc4ccccc4[nH]3)c2=N)c1	5	9	8.6	-7.8	0.71	-0.8	3	i	17%
CCCn1c(NCc2cccs2)nc2ccccc21	x	x	x	x	0.69	1.8	46	x	17%

# Assay outcomes deposited in PubChem by several laboratories.

# This is a subset. The share of hits here may be higher or lower than overall.
